Screening results deposited in PubChem by several laboratories.
UUG fidelity – yeast start codon fidelity modulation; S. cerevisiae UUG-firefly luciferase reporter, luminescence/redox ratio; activity score, % at 18.7 µM; 350,000 compounds, 0.13% hits; AID 602363;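 active = replicate mean at a twofold rise or more, about +100% in these data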;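 also: firefly luciferase made from a UUG start codon reports start codon fidelity; reporter light over untreated wells divided by growth signal over untreated wells; some hits fall short of that in this replicate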
eIF4H inh – inhibitors of RNA binding by human eIF4H; eIF4H fluorescence polarization binding assay; 290,000 compounds, 0.94% hits; inhibition, % at 35 µM; AID 2012; Q15056;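 active = 50% or more with normal probe brightness, or confirmed in later tests; inconclusive = above 50% with abnormal brightness, or retests that disagree; inactive = below 50% or failed in later tests; about a fifth of its hits are not listed in these tables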;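 also: calls also rest on retests at 20 µM and on dose response follow-up; 0% = protein and probe with vehicle and 100% = probe without protein; strong numbers were not always called active; many hits fall short of the cut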
MT1-MMP act inh – MT1-MMP (human) activation inhibition | 360,000 compounds, 0.061% hits | GFP/RFP ratio change, % at 20 µM | HT1080 RFP-PRO-GFP cells, GFP/RFP ratio fluorescence, overnight; percent of plate control window, DMSO zero | AID 651647;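 active = GFP/RFP ratio change of at least 30% with cell ATP level not reduced by more than half and red fluorescence within 50% of control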; also: strong numbers were not always called active
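Material – HT1080 RFP-PRO-GFP cells · Control set – DMSO wells and RFP-L50D-GFP cells · Incubation – overnight cell settling, then overnight compound exposure, 37 °C, 5% CO2 · Compound dosing – single-point 20 µM compound, 1% DMSO · Read-out – GFP/RFP fluorescence ratio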
CSC inhib – blocks cancer stem cells; cancer stem cell-like cells viability, luminescence; inhibition, % at 7.5 µM; 300,000 compounds, 1.1% hits;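 active = mean at 75% or more and at least half the replicates too; inconclusive = mean and replicates disagree; tested in HMLE shEcad cells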;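 also: 0% = median of negative and 100% = median of positive control wells; the first replicate is given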
PABP FP inh – blocks human PABP binding to poly(A) RNA | inhibition, % at 35 µM | 290,000 compounds, 1% hits | P11940 | fluorescence polarization | AID 2014;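 active = 50% or more with normal probe brightness, or confirmed in later tests; inconclusive = above 50% with abnormal brightness, or retests that disagree; inactive = below 50% or failed in later tests; about a fifth of its hits are not listed in these tables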;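 also: calls also rest on retests at 20 µM and on dose response follow-up; controls were probe without protein and protein plus probe with vehicle; some compounds called inactive have numbers as strong as hits; many hits fall short of the cut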
Target sequence (P11940 whole entry, looked up): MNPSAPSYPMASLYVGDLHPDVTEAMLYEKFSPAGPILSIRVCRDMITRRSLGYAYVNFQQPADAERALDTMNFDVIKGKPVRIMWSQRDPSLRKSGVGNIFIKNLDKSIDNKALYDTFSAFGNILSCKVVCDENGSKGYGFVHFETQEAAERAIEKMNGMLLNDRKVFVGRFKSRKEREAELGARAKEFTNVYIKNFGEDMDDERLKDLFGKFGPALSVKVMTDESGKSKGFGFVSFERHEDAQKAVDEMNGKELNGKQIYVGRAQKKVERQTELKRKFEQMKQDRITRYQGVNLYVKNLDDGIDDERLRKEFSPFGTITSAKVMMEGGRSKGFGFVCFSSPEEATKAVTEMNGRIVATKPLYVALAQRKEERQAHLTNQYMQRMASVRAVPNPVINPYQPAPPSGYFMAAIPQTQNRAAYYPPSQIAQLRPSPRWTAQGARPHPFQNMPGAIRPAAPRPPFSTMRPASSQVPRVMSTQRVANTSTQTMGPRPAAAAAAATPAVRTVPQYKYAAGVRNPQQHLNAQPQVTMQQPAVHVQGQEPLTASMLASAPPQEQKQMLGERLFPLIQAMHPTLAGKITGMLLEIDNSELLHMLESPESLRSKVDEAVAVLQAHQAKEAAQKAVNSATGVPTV
HIV Env fusion – HIV envelope-mediated fusion inhibition | inhibition, % at 12.3 µM | 360,000 compounds, 1.1% hits | AID 651610 | HeLa-JRFL Env/CEM21 cell fusion, luciferase;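 active = mean replicate inhibition score of at least 50 and every replicate individually at or above 50; inconclusive = only one of the two criteria met; inactive = mean below 50 and not all replicates reaching 50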;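 also: 0% = plate neutral controls and 100% = maraviroc near 300 nM; one replicate is shown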
Rce1 inhib – inhibitors of yeast Ras-converting enzyme | Q03530 | 290,000 compounds, 0.27% hits | yeast membranes, quenched prenylated peptide cleavage fluorescence | calls only;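 active = fall in fluorescence gain of 50% or more versus controls, with final raw signal at or below 3038400; inconclusive = same 50% fall but final raw signal above 3038400; inactive = fall in fluorescence gain under 50%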;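 also: plate controls were neutral control wells for no effect and wells lacking membranes for full effect; tested at 10 µM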
Target sequence (Q03530 whole entry, looked up): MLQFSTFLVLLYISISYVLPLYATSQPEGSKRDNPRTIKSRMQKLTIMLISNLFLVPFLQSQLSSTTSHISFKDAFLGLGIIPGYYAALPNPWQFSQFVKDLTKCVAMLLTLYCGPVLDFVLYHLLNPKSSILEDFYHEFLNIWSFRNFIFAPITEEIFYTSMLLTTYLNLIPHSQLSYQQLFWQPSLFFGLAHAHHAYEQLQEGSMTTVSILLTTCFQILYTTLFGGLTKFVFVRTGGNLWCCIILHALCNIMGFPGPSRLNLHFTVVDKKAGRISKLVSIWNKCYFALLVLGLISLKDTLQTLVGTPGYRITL
MT1-MMP act inh RFP – recorded beside MT1-MMP act inh, whose call it bears; RFP signal change, %; measured here: RFP expression control read;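 0 = vehicle wells; hits needed this value within 50% of zero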
Starred values were filed as active, the others as inactive; i = inactive; u = inconclusive; x = not tested or not shown; & = joins results of further samples. A portion of the library, so the mix of outcomes need not match the whole.

no.	SMILES	UUG fidelity	eIF4H inh	MT1-MMP act inh	MT1-MMP act inh RFP
1	Cn1c(=O)oc2cc(S(=O)(=O)NCCCN3CCCC3=O)ccc21	-15	-1	3	2
2	O=C(Nc1nn[nH]n1)C12CC3CC(CC(C3)C1)C2	x	-1	2	9
3	Cc1c(CCOC(=O)c2cc([N+](=O)[O-])ccc2Cl)sc[n+]1CCCCS(=O)(=O)[O-]	x	-5	0	3
4	CCc1ccccc1SCc1noc(C(=O)NCC2CCCO2)c1C(=O)O (stereo not given)	6	-2	5	11
5	CNS(=O)(=O)c1cccc(C(=O)OCc2csc(-c3ccccc3)n2)c1	7	2	1	-12
6	COc1ccc(CCNC(=O)C2CCN(S(=O)(=O)c3ccc(-n4cnnn4)cc3)CC2)cc1OC	-5	12	7	4
7	O=C(CCOc1cccc(Br)c1)NNC(=O)COc1ccc(F)cc1	-7	x	3	6
8	CCOC(=O)Cn1nc(-c2ccc(Cl)cc2)cc1N	-6	-4	1	1
9	CCOc1ccccc1N1CN(Cc2ccccc2)CNC1=S	-27	-4	0	0
10	Cc1[nH]c2ccccc2c1C(=O)C(=O)NCc1nnnn1-c1ccc(F)c(F)c1	-22	x	3	3
11	OCCC1CN(Cc2cccnc2)CCN1CCc1ccccc1 (stereo not given)	-12	7	-1	4
12	CCN(C(=O)COC(=O)C1CCN(S(=O)(=O)c2cccs2)CC1)c1ccccc1	x	-6	3	4
13	COCCCNC(=S)Nc1cc(C)c(C)cc1C	x	-4	1	0
14	CCOC(=O)c1ccc(NC(=O)c2cc(=O)[nH]c3ccccc23)cc1	x	3	3	2
15	COCCSc1ccccc1C(=O)N1CCc2ccccc2C1	-7	1	-3	0

no.	CSC inhib	PABP FP inh	HIV Env fusion	Rce1 inhib
1	-11	4	16	i
2	-7	2	-69	i
3	-3	7	1	i
4	6	-2	x	i
5	1	-4	x	i
6	-16	7	x	i
7	x	x	-7	x
8	-11	6	-14	i
9	7	2	2	i
10	x	x	11	x
11	x	-1	-7	i
12	1	2	-7	i
13	-8	-7	-5	i
14	-14	5	3	i
15	-15	-2	-11	x

Next section:
no.	SMILES	UUG fidelity	eIF4H inh	MT1-MMP act inh	MT1-MMP act inh RFP
16	CCOc1ccc(CCNC(=O)CSc2nn(-c3ccc(C)c(Cl)c3)c(=S)s2)cc1OCC	9	-10	3	-1
17	COc1ccc(/C(C)=N/N=C(N)N)c(OC)c1	-23	3	0	-1
18	CCOc1ccc(CNC(=O)C2Cc3cc(S(=O)(=O)N4CCCC4)ccc3N2C(C)=O)cc1 (stereo not given)	-7	-6	3	4
19	CC(C)c1nc(N2CCN(C(=O)c3ccco3)CC2)c2c3c(sc2n1)CCCC3	-17	3	-10	-15
20	Cc1cc2cc(C=C(C#N)C#N)c(Cl)nc2cc1C	-13	u	-25	1
21	CCCCNC(NCCCC)=C(S(=O)(=O)CC)S(=O)(=O)CC	-8	-2	-2	3
22	O=C1c2cccc3c([N+](=O)[O-])ccc(c23)C(=O)N1CC1CCCO1 (stereo not given)	x	44	-116	-2
23	CC(C)(C)c1cc(Cl)ccc1OCCOCCN1CCCC1	-12	4	2	2
24	Cc1oc(-c2ccc3c(c2)OCCO3)cc1C(=O)O	-90	0	-1	5
25	CCOc1ccc(Oc2ccc(Cl)cc2NC(=O)C2=COCCO2)cc1	-8	x	4	-2
26	CCOC(=O)C1=CCN(S(=O)(=O)c2ccc(Br)cc2)C1c1ccccc1 (stereo not given)	-11	x	3	-2
27	CC1C=CCC2C(=O)N(c3cccc(C(=O)NCCc4ccccc4)c3)C(=O)C12 (stereo not given)	12	1	-3	6
28	Cc1cc(/C=C2/C(=N)N3C(c4ccccc4)=CSC3=NC2=O)c(C)n1-c1ccc(Cl)cc1	-8	x	3	-4
29	Cc1ccc(C(=O)C(C)OC(=O)Cn2c(C)csc2=O)cc1 (stereo not given)	-7	-15	1	1
30	N#CN=C1SCCS1	-2	-2	-4	0

no.	CSC inhib	PABP FP inh	HIV Env fusion	Rce1 inhib
16	-8	5	x	i
17	15	5	13	i
18	-6	1	-11	i
19	24	13	5	i
20	41	20	-263	i
21	-9	8	1	i
22	x	-3	-23	i
23	93*	1	5	i
24	23	1	3	i
25	x	x	-3	i
26	x	x	6	x
27	-11	15	4	i
28	x	x	-4	x
29	-6	3	x	i
30	-6	2	x	x

Next structures
no.	SMILES	UUG fidelity	eIF4H inh	MT1-MMP act inh	MT1-MMP act inh RFP
31	CC12CCC(=O)N1c1ccccc1C(=O)N2c1ccccc1 (stereo not given)	-7	4	-4	-5
32	Clc1cc2cccnc2c2ccccc12	-10	7	-1	5
33	COc1ccc(NC(=O)C2CCC(CNc3c(N4CCCCC4)c(=O)c3=O)CC2)cc1OC (stereo not given)	-9	-5	1&2	1&4
34	O=C(NNC(=O)c1cccs1)c1ccco1	-4	-2	-2	2
35	COc1ccc2c(C(=O)CN3CCN(CCO)CC3)c[nH]c2c1	-19	12	-1	7
36	CC(=O)Nc1nc(C)c(CCC2OCCO2)c(=O)[nH]1	x	-7	4	2
37	Cc1ccc(-c2nn3c(C)nnc3c3ccccc23)cc1S(=O)(=O)NC(C)(C)CO	x	-5	11	12
38	CCOC(=O)N1CCC(NC(=O)C2CCCN(Cc3nc(-c4cccc(C)c4)oc3C)C2)CC1 (stereo not given)	x	-8	0	-19
39	O=c1c2sc3nc(N4CCOCC4)c4c(c3c2ncn1C(c1ccccc1)c1ccccc1)CCCC4	-18	x	-6	-6
40	Cc1cc(=O)oc2cc(OC(C)C)ccc12	-17	-5	-1	2
41	CCCCN(C(=O)c1cc(S(=O)(=O)N2CCCCCC2)ccc1OC)c1c(N)n(CCC)c(=O)[nH]c1=O	x	x	-6	4
42	CCCCNC(=O)OC(C)CNC(=O)OC (stereo not given)	-3	-8	-8	1
43	Cc1ccc(OCCCn2c(=O)sc3ccccc32)cc1	-24	-7	2	-2
44	O=C(CN1c2ccccc2Sc2ccccc21)NNC(=S)Nc1ccc(Cl)cc1	-18	13	4	-7
45	COc1ccc(C(CNC(=O)CNC(=O)c2ccccc2Cl)N2CCCC2)cc1 (stereo not given)	8	x	0	4

no.	CSC inhib	PABP FP inh	HIV Env fusion	Rce1 inhib
31	9	-2	x	i
32	5	-8	-2	i
33	-10	-1	15&10	i
34	-14	7	-38	i
35	4	6	x	i
36	-8	1	-23	i
37	-1	8	-33	i
38	-6	-8	16	i
39	x	x	2	x
40	0	1	-117	i
41	-17	x	7	i
42	-8	0	x	i
43	2	-6	x	i
44	31	7	7	i
45	-7	x	-12	i

(more compounds)
no.	SMILES	UUG fidelity	eIF4H inh	MT1-MMP act inh	MT1-MMP act inh RFP
46	CC(NC(=O)c1cc(S(=O)(=O)N2CCOCC2)ccc1F)c1ccc(-n2ccnc2)cc1 (stereo not given)	-15	x	3	3
47	Cc1cccc(C(=O)N2CCN(c3ccc(N4CCOCC4)nn3)CC2)c1	x	3	3	3
48	COc1cccc2c1cc1c(=O)n(CC(=O)N3CCN(c4cccc(C)c4C)CC3)nc(C)n12	2	x	-1	-2
49	CN(C)CCCNC(=O)/C=C/c1ccc2c(c1)OCO2	-31	12	-2	7
50	Cn1c(=O)c2c(nc(N3CCN(C(=O)c4ccco4)CC3)n2CCSc2ncccn2)n(C)c1=O	1	0	3	1
51	CSc1n[nH]c(-c2sccc2OCc2ccc(C)cc2)n1	-8	5	-2	-6
52	CCNC(=S)N(CCc1c(C)[nH]c2ccc(Cl)cc12)Cc1cccnc1	-22	-4	-4	-5
53	Cn1c(=O)n(CC(N)=O)c(=O)c2c1nc1n2CCCN1Cc1ccccc1	-9	-5	-1	0
54	O=C(COC(=O)C1CCN(c2ccc(C(F)(F)F)cn2)CC1)Nc1ccc(Cl)cc1	-9	x	2	-3
55	O=C(C[n+]1cc(-c2ccc(Cl)cc2)n2c1CCC2)Nc1nc(-c2ccccc2)cs1	x	0	5	2
56	Cc1ccc(N2CSC3=C(C#N)C(c4cccs4)CC(=O)N3C2)cc1 (stereo not given)	3	61*	-1	5
57	CCc1ccc2[nH]c(=O)c(CN(CCO)C(=O)NCc3ccccc3)cc2c1	-4	-6	1	0
58	O=C(/C=C/c1ccccc1)Nc1ccc(N2CCCCC2)cc1	-14	2	6	6
59	Cc1nnc(SCC(=O)NC2CCCCCC2)n1C	-3	8	-1	-1
60	COc1ccc(OC)c(S(=O)(=O)N2Cc3ccccc3CC2C(=O)Nc2nccs2)c1 (stereo not given)	-35	-4	-6	2

no.	CSC inhib	PABP FP inh	HIV Env fusion	Rce1 inhib
46	x	x	41	x
47	1	-5	0	i
48	x	x	12	x
49	4	3	23	i
50	-5	2	15	i
51	-13	5	27	i
52	5	0	18	i
53	-1	-15	7	i
54	-19	x	2	i
55	-10	-12	-13	i
56	6	82*	-48	i
57	x	1	x	i
58	-1	8	x	i
59	3	4	0	i
60	-11	3	x	i

Additional records.
no.	SMILES	UUG fidelity	eIF4H inh	MT1-MMP act inh	MT1-MMP act inh RFP
61	Cc1ccc2oc(C(Cl)(Cl)Cl)cc(=O)c2c1	x	-8	11	7
62	Cc1occc1-c1nnc(SCC(=O)NC(C)(C)C)n1CC(C)C	x	0	-7	-2
63	COc1cccc(C(C#N)N2CCOCC2)c1 (stereo not given)	-31	8	0	6
64	Cc1cc[n+](-c2[nH]c(=O)sc2/C=N/NC(=O)c2ccccc2[O-])cc1C	x	24	-4	1
65	CCOc1ccc2[nH]cc(S(=O)(=O)c3ccc(C)cc3)c(=O)c2c1	-16	-12	-2	-6

no.	CSC inhib	PABP FP inh	HIV Env fusion	Rce1 inhib
61	33	-11	x	i
62	-4	6	2	i
63	x	-10	x	i
64	7	-5	5	i
65	3	4	-3	i

In the list so far, these contain two or more sulfur atoms:
no.	SMILES	UUG fidelity	eIF4H inh	MT1-MMP act inh	MT1-MMP act inh RFP
3	Cc1c(CCOC(=O)c2cc([N+](=O)[O-])ccc2Cl)sc[n+]1CCCCS(=O)(=O)[O-]	x	-5	0	3
5	CNS(=O)(=O)c1cccc(C(=O)OCc2csc(-c3ccccc3)n2)c1	7	2	1	-12
12	CCN(C(=O)COC(=O)C1CCN(S(=O)(=O)c2cccs2)CC1)c1ccccc1	x	-6	3	4
16	CCOc1ccc(CCNC(=O)CSc2nn(-c3ccc(C)c(Cl)c3)c(=S)s2)cc1OCC	9	-10	3	-1
21	CCCCNC(NCCCC)=C(S(=O)(=O)CC)S(=O)(=O)CC	-8	-2	-2	3
30	N#CN=C1SCCS1	-2	-2	-4	0
44	O=C(CN1c2ccccc2Sc2ccccc21)NNC(=S)Nc1ccc(Cl)cc1	-18	13	4	-7
51	CSc1n[nH]c(-c2sccc2OCc2ccc(C)cc2)n1	-8	5	-2	-6
56	Cc1ccc(N2CSC3=C(C#N)C(c4cccs4)CC(=O)N3C2)cc1 (stereo not given)	3	61*	-1	5
60	COc1ccc(OC)c(S(=O)(=O)N2Cc3ccccc3CC2C(=O)Nc2nccs2)c1 (stereo not given)	-35	-4	-6	2

no.	CSC inhib	PABP FP inh	HIV Env fusion	Rce1 inhib
3	-3	7	1	i
5	1	-4	x	i
12	1	2	-7	i
16	-8	5	x	i
21	-9	8	1	i
30	-6	2	x	x
44	31	7	7	i
51	-13	5	27	i
56	6	82*	-48	i
60	-11	3	x	i
